gsp ag = activates gsp, the McCune-Albright syndrome mutation. AID 624287. Potency, µM (series often up to 76.9 µM), inactives show top-dose activation (cAMP increase), actives largely listed as activators. gsp mutant cells, cAMP HTRF, 30 min; control for the full effect not named in the record. 340,000 tested, 0.13% active; active = well fitted activation curve with a large enough effect; inconclusive = small, poorly fitted or top-dose-only effect, or another doubt; inactive = no such curve, though single readings can be large or run the other way; cell line not stated here;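 further: phosphodiesterase inhibitor Ro 20-1724 added with compounds to block cAMP breakdown; potency means the concentration at half of the fitted maximal effect; nearly all actives have a fitted effect of over 60% in size; about a fifth of the inactives were tested at one dose only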
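Cells stably selected in G418 were plated at 2000/well, grown 16-24 hr, then given compounds in DMSO with the PDE inhibitor […] (300 uM solution added) for 30 min at 37C; cAMP was read by HTRF.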
ClpP mod = qHTS Assay for Activators of ClpP; ATP-dependent Clp protease proteolytic subunit (Bacillus subtilis (strain 168)), P80244; 340,000 tested, 1.9% active; Potency, µM (series often up to 57.5 µM), without a hit: top-dose activity change, negative = active; purified B. subtilis ClpP, FRET peptide cleavage, 20 min; active = well fitted falling curve with a large enough effect; inconclusive = small, poorly fitted or top-dose-only effect; inactive = no such curve, though single readings can be large or run the other way; further: potency means the concentration at half of the fitted maximal effect; the source files actives as falling curves though it sought activators and does not explain the sign; nearly all actives have a fitted effect of over 65% in size; many hits overshoot -100%
Target sequence (P80244 whole entry, looked up): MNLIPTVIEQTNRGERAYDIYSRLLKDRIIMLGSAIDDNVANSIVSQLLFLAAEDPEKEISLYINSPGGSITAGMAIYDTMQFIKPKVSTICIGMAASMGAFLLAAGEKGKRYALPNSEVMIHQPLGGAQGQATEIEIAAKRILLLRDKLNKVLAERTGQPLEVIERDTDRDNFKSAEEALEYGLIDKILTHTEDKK
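Purified B. subtilis ClpP, 10 microg/mL final in Tris/HCl pH8 with KCl, BSA, glycerol and Tween-20, cleaved an Abz/nitrotyrosine-quenched decapeptide. Fluorescence (ex 320, em 430) was read at 0 and 20 min at room temperature. Delta was normalized to 5.8 microM ADEP and DMSO/no-enzyme controls.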
gsp antag = gsp mutant antagonism. gsp-mutant cells, cAMP HTRF, 30 min; control for the full effect not named in the record. Potency, µM (highest dose often 76.9 µM), for inactives: at the highest dose activity change, negative = inhibition, hits mostly inhibitors. 340,000 tested, 0.4% active; active = falling curve of any shape with a large fitted effect; inconclusive = falling curve, mostly with a smaller effect; inactive = flat or rising curve; cell line not stated here;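 further: intracellular cAMP measured with PDE inhibitor Ro 20-1724 present during compound exposure; potency means the concentration at half of the fitted maximal effect; on the % scale 0 is the no-effect control and ±100 the full control effect; nearly all actives have a fitted effect of over 65% in size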
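HTRF cAMP measurement after 30 min RT detection following 30 min, 37C compound treatment alongside […] (added as 300 uM solution) in G418-selected cells seeded at 2000/well and grown 16–24 h.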
Sfp inh = blocks B. subtilis Sfp PPTase activity. Q9F4F7. Biochemical Sfp PPTase activity, qHTS. Potency, µM, inactives show max response, negative = inhibition, usual class: inhibitors. 310,000 tested, 3.5% active; active means well fitted inhibition curve with a large enough effect; inconclusive means small, poorly fitted or top-dose-only effect, or another doubt; inactive means no such curve, though single readings can be large or run the other way;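 further: the enzyme is Sfp with the accession as filed and its product quenches rhodamine fluorescence; potency means the concentration at half of the fitted maximal effect; 0% = enzyme reaction without inhibitor and -100% = no enzyme wells; top concentration of the series not given in the record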
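Reaction rates are the 30-min fluorescence difference (ex 525, em 598 nm) in wells containing 15 nM Sfp, 5 uM rhodamine-CoA and 12.5 uM BHQ-2-YbbR at pH 7.6 with 10 mM MgCl2.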
PINK1 modulator = changes PINK1 expression. PINK1 immunofluorescence, high-content cytometry, 24 h. Potency, µM (doses to about 76.6 µM), for the others: top-dose activation (PINK1 increase), most hits filed as activators. 410,000 tested, 0.2% active. AID 624263; active = well fitted activation curve with a large enough effect; inconclusive = small, poorly fitted or top-dose-only effect; inactive = flat fitted curve, though single readings scatter; cell line not stated here;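 further: potency means the concentration at half of the fitted maximal effect; % of control where 0% means no effect; nearly all actives have a fitted effect of over 65% in size; a mitochondrial uncoupler was the plate control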
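Compound titrations (5 concentrations, 24 h) on a stable cell line; DMSO and CCCP controls. Endpoint: fixed-cell PINK1 immunofluorescence with mitochondrial, cell and nuclear markers, scanned by microplate cytometer.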
Menin-MLL FL inh = menin-MLL binding inhibition, fluorescein peptide; AID 1766; 290,000 tested, under 10 active; Fluorescence polarization, fluorescein-MLL peptide displacement from menin; FP activity change, % at 61.4 µM; inconclusive = falling polarisation curve, or a change in total fluorescence; inactive = total fluorescence flat and polarisation flat or rising; no compound was filed as active; the % refers to the polarisation; negative = inhibition;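 further: % of control where 0% means no effect; inhibitors lower the polarisation; unlabelled MLL peptide was the positive control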
D2 agonist = agonists of human D2 dopamine receptor (beta-arrestin); DiscoveRx PathHunter D2 beta-arrestin, luminescence, 90 min; 100% = 57 uM dopamine signal; activation, % (concentration not given with the values); 360,000 tested, 0.084% active; in the data active = activation above about 40%; inconclusive = about 15% to 40%; inactive = below about 15%; further: compound concentration not given in the record; the text of the record calls up to 30% inactive
Target sequence (P14416 whole entry, looked up): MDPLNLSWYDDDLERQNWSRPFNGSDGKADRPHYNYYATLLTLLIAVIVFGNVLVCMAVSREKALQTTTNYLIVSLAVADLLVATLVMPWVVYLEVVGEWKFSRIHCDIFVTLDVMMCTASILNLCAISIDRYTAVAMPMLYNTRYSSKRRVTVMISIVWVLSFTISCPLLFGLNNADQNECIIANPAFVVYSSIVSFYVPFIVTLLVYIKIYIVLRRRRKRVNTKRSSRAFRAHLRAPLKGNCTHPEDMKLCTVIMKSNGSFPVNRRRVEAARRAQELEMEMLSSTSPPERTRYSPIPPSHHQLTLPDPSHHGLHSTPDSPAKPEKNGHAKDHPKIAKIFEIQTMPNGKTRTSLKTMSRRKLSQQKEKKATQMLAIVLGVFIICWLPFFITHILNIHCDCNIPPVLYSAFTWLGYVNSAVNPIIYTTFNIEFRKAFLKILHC
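Agonist mode: compounds alone added to overnight-plated D2 PathHunter cells for 90 min at 37 C, with 57 uM final dopamine (EC100) defining full response. Beta-arrestin recruitment detected by chemiluminescent reagent, read after 1 h at ambient temperature.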
An asterisk follows results filed as active; ? = inconclusive; / = not tested or not shown; & = joins results of further samples; [ ] = dose if it differs, or a comment.

Second line of a record: gsp ag	ClpP mod	gsp antag	Sfp inh	PINK1 modulator	Menin-MLL FL inh	D2 agonist
COc1ccc(C2=NN(C(=O)CCC(=O)O)C(c3ccc([N+](=O)[O-])cc3)C2)cc1 (stereo unspecified)
→ 13.4%[15.4 µM]	-5.6%	-7.6%	7.8%	0.1%	-0.4	0.2
Cc1ccc2nc(-c3cccnc3)c(Nc3ccccc3C)n2c1
→ -29.8%[15.4 µM]	-19.5%	-7.3%	31.3%[activator]	8.6%&-0.1%	-7.4	1.6
CS(=O)(=O)c1ccc(NC(=O)CCN2C(=O)NC3(CCCC3)C2=O)cc1
→ 0.3%	0.0%	1.5%	/	1.4%	/	-2.8
CCn1c(SCC(=O)N2CCCc3ccccc32)nc2c1c(=O)n(C)c(=O)n2C
→ 19.9%	3.7%	7.9%	11.3%	-2.5%[38.3 µM]	3.2	-2.1
O=C(CSc1nnc(SCc2ccccc2)s1)N/N=C/C=C/c1ccco1
→ 34.4%	-0.3%	-4.7%	35.5µM*	-1.4%	13.1	0.0
COc1ccc(C(=O)N2CCOC2CNC(=O)C(=O)NCCc2ccc(OC)c(OC)c2)cc1 (stereo unspecified)
→ -0.2%	-1.8%	1.4%	8.8%	4.2%	-3.8	-7.3
Cc1ccc(C(=O)C(C)OC(=O)Cc2c[nH]c3ccccc23)cc1 (stereo unspecified)
→ -0.7%[15.4 µM]	-3.0%	-8.5%	/	0.4%	/	-3.8
CC(OC(=O)CN1C(=O)NC2(CCCCC2C)C1=O)c1ccccc1 (stereo unspecified)
→ 4.4%	0.0%	8.8%	/	0.3%	/	-1.6
COc1cccc(OC)c1OCCNC(C)(C)C
→ -4.7%	31.6µM*	4.0%	-12.3%	2.4%	1.4	1.7
O=C(N=C1SC2CS(=O)(=O)CC2N1Cc1ccccc1)C1CC1 (stereo unspecified)
→ 3.2%	0.0%	/	/	0.2%	/	-2.6
COc1cc(C(C)=O)ccc1OCCN1CCC(Cc2ccccc2)CC1
→ -3.3%[15.4 µM]	/	11.5%	-25.0%	0.4%	-0.9	-6.0
COc1ccc(NC(=O)CN(C)CC(=O)Nc2ccc(N3CCOCC3)cc2)c([N+](=O)[O-])c1
→ -5.5%[15.4 µM]	-2.7%	-7.0%	-3.7%	1.4%	-1.6	-1.8
CC(C)(C)OC(=O)N1CCC[C@H]1c1nnc(SC/C=C/c2ccccc2)o1
→ 20.5%	-0.7%	-4.1%[15.4 µM]	?	1.9%	1.7	-3.1
CCN(CC1COc2ccccc2O1)C(=S)NCCCN(C)C (stereo unspecified)
→ -0.5%	2.1%	-5.2%	12.0%	-0.3%	1.9	-1.6
COC(=O)CN(c1ccccc1F)S(=O)(=O)c1ccccc1
→ 2.2%	0.3%	-0.7%	7.3%	1.7%	0.5	-3.0
CCSc1nnc(NC(=O)c2cc(C)nc3ccccc23)s1
→ 1.2%[15.4 µM]	-2.1%	-13.7%	7.9%	0.1%	2.6	-0.1
OC1(c2ccccc2)CC(c2ccccc2)c2ccccc2O1 (stereo unspecified)
→ -3.7%	/	?	/	14.8%	/	1.5
CCCCN(C(=O)c1ccc(C)cc1)c1c(N)n(CCC)c(=O)[nH]c1=O
→ 28.3%[15.4 µM]	-1.4%	-13.7%	14.4%	1.9%	-2.0	-8.1
COc1ccc(CCNC(=O)C2CCC(C(C)(C)C)CC2)cc1OC (stereo unspecified)
→ 1.2%	1.3%	?	7.9%	10.5%	/	0.1
O=C(O)/C=C/C(=O)Nc1ccc(OC(F)(F)F)cc1Br
→ -17.8%[15.4 µM]	/	-1.2%	10.3%	-0.9%	4.0	-1.4
CN(C)c1ccnc(-c2ccccc2C(F)(F)F)n1
→ /	/	/	-22.3%	1.5%	2.0	/
O=C(NNc1c(F)c(F)cc(F)c1F)C1CCN(S(=O)(=O)c2ccccc2F)CC1
→ 17.1%	1.9%	-1.2%	/	0.6%	/	-1.5
C#CCOCCOCCOCCNc1nc(N2CCN(C(=O)[C@H](C)n3cc(CCC(=O)O)nn3)CC2)nc(N2CCN(C(=O)[C@H](C)n3cc(CCC(=O)O)nn3)CC2)n1
→ /	0.0%	7.6%	/	-1.7%	/	-0.6
COc1cccc(C(=O)c2c[nH]c(C(=O)NCc3cccnc3)c2)c1
→ -17.9%[15.4 µM]	/	?	19.4%	3.6%	6.6	-6.3
O=C(CNC(=O)Cc1cccc2ccccc12)NCc1ccc(F)cc1
→ 0.9%[15.4 µM]	1.4%	-17.3%	16.0%	5.2%	0.6	-6.6
Nc1cc(N)nc(SCCc2ccccc2)n1
→ 5.5%[15.4 µM]	-3.4%	8.9%	15.1%	2.1%	-1.5	1.9
CNC(=O)c1[nH]cnc1C(=O)Nc1ccccc1
→ /	-1.5%	7.7%	/	-1.3%	/	1.1
O=C(/C=C/c1c(F)cccc1Cl)NCCCN1CCOCC1
→ 18.5%	-0.9%	4.0%	7.7%	-0.4%	5.8	-0.1
NC(=O)C1CCN(c2ccc(C(F)(F)F)cn2)CC1
→ 1.8%[15.4 µM]	/	-14.4%	22.8%	2.3%	1.4	-1.6
COCCn1c(N)c(N(Cc2ccccc2)C(=O)C2CCCCC2)c(=O)[nH]c1=O
→ ?	/	-1.9%	7.3%	0.6%	-2.4	-2.2
COc1ccc(N(C)C(=O)c2cc3c(s2)-c2ccccc2S(=O)(=O)C3)cc1
→ -4.9%[15.4 µM]	/	-14.3%	8.3%	5.0%	3.5	-2.0
O=C1CCC(=O)N1CCCCCc1nc(-c2ccccc2)no1
→ 3.5%	?	7.4%	5.7%	-1.2%	-1.8	-6.7
O=C(CCC1CCCC1)N1CCN(C(=O)c2cccnc2)CC1
→ -0.5%	0.0%	2.8%	1.6%	15.1%[38.3 µM]	2.1	-0.4
CC1CCCC(NC(=O)COC(=O)COc2ccc(Br)cc2)C1C (stereo unspecified)
→ 1.1%	1.7%	0.9%	/	6.5%	/	-0.9
COC(=O)C1=C(C)Nc2c(c(=O)n(C)c(=O)n2C)C1c1cccnc1 (stereo unspecified)
→ -12.7%	-18.7%	7.1%	-1.4%	-2.9%	0.7	-3.1
COc1ccccc1/C=C(/C(=O)OCC(=O)Nc1ccc(N(C)C)cc1)c1ccccc1
→ 9.3%	-2.1%	?	-4.7%	2.2%	3.3	2.1
NCCCC[C@@H]1NC(=O)[C@H](CCC(=O)O)NC(=O)c2cc([N+](=O)[O-])cc(I)c2SC[C@@H](C(=O)NCC(N)=O)NC1=O
→ /	0.3%	8.6%	5.4%	-0.4%	-0.9	-7.0
O=C(Nc1ccccc1N1CCOCC1)C1=NN(c2ccccc2)C(=O)CC1
→ -11.7%[15.4 µM]	?	-28.0%	/	1.2%	/	-4.0
CN(CC(=O)Nc1ccc(OC(F)(F)F)cc1)C(=O)Cc1ccc2c(c1)CCC2
→ ?	0.6%	-1.9%	/	8.9%	/	-1.3
CC1C(Br)C(=O)NC(=O)N1Cc1ccccc1 (stereo unspecified)
→ 5.7%[15.4 µM]	/	7.1%	-4.4%	1.8%	-0.3	-0.2
CCOC(=O)c1c(C)n(C)c2ccc(OCC(O)CN3CCCCCC3)cc12 (stereo unspecified)
→ ?	0.2%	13.0%	-9.1%	4.8%	0.8	-5.1
CC(=O)Nc1ccc(CN2CCC(Oc3ccc(C(=O)N4CCCC4)cc3)CC2)cc1
→ 2.0%	1.2%	8.3%	9.0%	1.6%	/	-3.1
CCn1c(SCC(=O)N2CCCC(C)C2)nnc1-c1ccc(S(=O)(=O)N2CCN(C)CC2)cc1 (stereo unspecified)
→ -40.1%[inhibitor]	-9.5%	-4.9%	-9.2%	-1.6%	3.6	-2.9
COc1ccc(NC(=O)Cn2nnc(C(=O)NCCc3ccc(OC)c(OC)c3)c2N)c(OC)c1
→ -48.0%[inhibitor]	-0.3%	-1.9%	5.7%	1.3%	0.8	4.7
Cc1ccc(-c2noc(CCC(=O)NCC3CCN(Cc4cccc(C)c4)CC3)n2)cc1
→ ?	-0.8%	7.0%	-9.4%	0.7%	-1.0	-1.9
CC(=O)n1cc([C@@H]2C=C(C(=O)N3CCOCC3)O[C@H](OCc3ccc(CO)cc3)C2)c2ccccc21
→ /	-0.9%	-15.5%	-8.3%	-1.2%	4.1	-1.4
O=[N+]([O-])c1cccc(-c2noc3c2-c2nc(Cc4cccc5ccccc45)sc2CC3)c1
→ 1.6%	-1.9%	3.1%	/	-0.7%	/	-1.1
COc1cc(NC(=O)COC(=O)Cc2ccc(-c3ccccc3)cc2)cc(OC)c1
→ 3.1%	63.2%	-21.2%	12.3%	0.6%	0.4	1.7
CC(Sc1nnc(-c2ccccc2Br)o1)C(=O)N1CCOCC1 (stereo unspecified)
→ ?	-0.1%	7.4%	6.8%	1.3%	3.5	-10.6
Cc1ccc(-c2ccc(=O)n(Cc3ccc(F)cc3)n2)cc1
→ 21.7%	?	-20.8%	-2.5%	-3.0%&-0.8%	-4.9	-4.0

Remaining list, next part:
Second line of a record: gsp ag	ClpP mod	gsp antag	Sfp inh	PINK1 modulator	Menin-MLL FL inh	D2 agonist
O=C(COc1ccc(Cl)cc1)NCCCNC(=O)c1ccncc1
→ -6.1%[15.4 µM]	1.7%	10.1%	8.1%	3.4%	0.7	-6.2
CCc1cc(SC#N)cc(CC)c1NC(=O)CCl
→ 21.3%	-2.2%	7.5%	-8.9%	-2.6%	-6.5	-10.0
COc1cccc(-c2ccc3ncnc(NCc4ccccc4)c3c2)c1
→ /	/	/	-11.0%	3.4%	-7.8	/
C=CCNC(=O)/C(=C/c1cccc([N+](=O)[O-])c1)NC(=O)c1ccccc1
→ ?	/	-3.3%	20.5%	-0.6%	-1.8	-1.2
CCOC(=O)C1(C(F)(F)F)N=C(C(F)(F)F)Nc2cc(C)c(C)cc21 (stereo unspecified)
→ 13.1%	1.8%	-12.1%	6.8%	5.0%	-0.8	-0.8
O=C(Nc1ncc(Cc2ccccc2Cl)s1)c1ccc(-c2cccc([N+](=O)[O-])c2)o1
→ -3.1%	0.3%	31.5%[activator]	-1.6%	1.4%	5.2	-3.3
O=C(CN1CCCCC1)N1CCN(c2ccccc2)CC1
→ -6.9%	/	6.4%	5.3%	0.9%	-9.5	-4.6
C/C(N)=C(/C#N)C(=O)CSc1nnc(NC(C)C)s1
→ -11.3%	1.6%	-9.9%	3.6%	19.0%[38.3 µM]	2.6	1.7
